KCNQ2 enhance: potentiators of rat KCNQ2 potassium channel; CHO-K1 KCNQ2, FluxOR thallium flux fluorescence; stronger effect = higher value; B-score at 10 µM; hit rate 0.54% among 310,000; AID 2239, 2010;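 active = fluorescence ratio B-score at least 3 SD of library B-scores, with initial fluorescence B-score within 3 SD, cut at about 5.3 in these data; same plate scores as AID 2156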;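 also: B-score of peak minus minimum over baseline fluorescence ratio after K+ and Tl+ stimulus; positive B-score means potentiation of KCNQ2 with more thallium influx and brighter signal; only the inactives scoring about 0 or higher are listed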
Target sequence (O88943 whole entry, looked up): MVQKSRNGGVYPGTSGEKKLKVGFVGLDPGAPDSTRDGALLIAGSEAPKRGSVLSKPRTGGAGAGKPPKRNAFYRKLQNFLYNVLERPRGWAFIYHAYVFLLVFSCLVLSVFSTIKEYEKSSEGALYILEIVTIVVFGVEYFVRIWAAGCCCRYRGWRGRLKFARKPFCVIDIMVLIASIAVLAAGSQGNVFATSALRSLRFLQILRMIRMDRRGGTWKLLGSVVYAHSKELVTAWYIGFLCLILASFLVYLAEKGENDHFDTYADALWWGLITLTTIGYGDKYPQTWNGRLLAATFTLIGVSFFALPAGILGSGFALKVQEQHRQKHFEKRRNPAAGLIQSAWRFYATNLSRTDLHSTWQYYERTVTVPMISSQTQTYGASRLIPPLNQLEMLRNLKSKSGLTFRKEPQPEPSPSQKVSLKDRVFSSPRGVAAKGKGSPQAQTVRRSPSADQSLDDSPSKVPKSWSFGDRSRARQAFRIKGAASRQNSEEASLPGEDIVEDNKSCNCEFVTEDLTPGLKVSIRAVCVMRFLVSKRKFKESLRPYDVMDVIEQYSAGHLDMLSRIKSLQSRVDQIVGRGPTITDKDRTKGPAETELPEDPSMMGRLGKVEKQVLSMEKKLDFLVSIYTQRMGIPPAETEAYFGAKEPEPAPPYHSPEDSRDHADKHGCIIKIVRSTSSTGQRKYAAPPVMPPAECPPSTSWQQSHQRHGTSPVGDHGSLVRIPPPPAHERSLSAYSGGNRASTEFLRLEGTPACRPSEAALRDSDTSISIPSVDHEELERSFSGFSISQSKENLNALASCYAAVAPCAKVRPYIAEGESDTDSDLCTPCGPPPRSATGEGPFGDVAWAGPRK
KCNQ2 enhance baseline: also measured in KCNQ2 enhance; calls as there; B-score; compound at 10 µM; measured here: initial fluorescence intensity artifact check;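 brightness before thallium and not channel activity; 0 = typical well and far values either way flag optical interference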
* hit, by the source's call. The list is partial; rates above refer to the full screens.

SMILES	KCNQ2 enhance	KCNQ2 enhance baseline
Cc1ccc(C(=O)Nc2nnc(C3=COCCO3)o2)cc1C	6.2*	-0.08*
CS(=O)(=O)N(CC(=O)N1CCCC1)c1cc(Cl)c(Cl)cc1Cl	0.47	0.94
Cc1csc(NC(=O)C(F)(F)F)n1	1.3	-0.21
COc1ccc(/C=N/NC(=O)CCCOc2ccc(Cl)cc2Cl)cc1	0.58	0.29
CC(=O)OCCc1c(C)nc2nc[nH]n2c1=O	0.52	0.44
O=C(Nc1ccccc1)c1ccc(Br)o1	1.5	-1.1
COc1ccccc1N(CC(=O)NCC1CCCO1)C(=O)CNS(=O)(=O)c1ccccc1 (configuration not stated)	0.07	0.16
N#CC1=C(C2CC2)CC(c2ccccc2)C(C#N)=C1N (configuration not stated)	0.4	-0.31
O=C1c2cccnc2C(Nc2ccc(Br)cc2Br)N1Cc1cccs1 (configuration not stated)	1	-2.3
Nc1ccc(S(=O)(=O)Nc2nc3ccccc3o2)cc1	0.01	0.62
Cn1c(CSCc2ccccc2)n[nH]c1=S	0.08	-0.01
CS(=O)CCC(NS(=O)(=O)c1ccccc1)C(=O)O (configuration not stated)	0.55	-0.01
CC(C)c1nnc(NC(=O)CCC(=O)N2CCN(c3ccccc3F)CC2)s1	0.79	-0.27
O=C(O)CSC1=NC(=Nc2ccc(Cl)cc2)C2(CCCCC2)N1c1cccc(C(=O)O)c1	0.31	0.46
COC(=O)C1CCN(C(=O)COC(=O)CNS(=O)(=O)c2ccc(SC)c([N+](=O)[O-])c2)CC1	0.07	-0.81

Fetched by compound from the entries so far (4):
SMILES	KCNQ2 enhance	KCNQ2 enhance baseline
CS(=O)CCC(NS(=O)(=O)c1ccccc1)C(=O)O (configuration not stated)	0.55	-0.01
CC(=O)OCCc1c(C)nc2nc[nH]n2c1=O	0.52	0.44
O=C(Nc1ccccc1)c1ccc(Br)o1	1.5	-1.1
COC(=O)C1CCN(C(=O)COC(=O)CNS(=O)(=O)c2ccc(SC)c([N+](=O)[O-])c2)CC1	0.07	-0.81

Carrying on.
SMILES	KCNQ2 enhance	KCNQ2 enhance baseline
O=C(CN1CCC(C(=O)c2ccc(Cl)cc2)CC1)NC1CCCC1	0.9	0.63
CC1=C(N2CCN(c3ncccn3)CC2)CCC1=O	0.09	3.5
Cc1cc(SCC(=O)Nc2ccccc2)n2ncc(-c3ccccc3)c2n1	0.36	0.01
Cn1c(SCC(=O)NC2CCCC2)nnc1-c1ccncc1	2.2	-0.15
Fc1ccc(COc2ccccc2C(=S)N2CCCC2)cc1	1	2
Cc1ccc(CCN2CC(C(=O)NCCc3ccccc3)CC2=O)cc1 (configuration not stated)	0.14	-1.5
COC(=O)c1c(C)nc(C)c(C(=O)OC)c1-c1ccc(OC)cc1	0.26	1.7
COc1ccc(N2CCN(CCNC(=O)Nc3cc(Cl)ccc3Cl)CC2)cc1	2.6	-1.5
CCOC(=O)CSc1nc(C)cc(=O)[nH]1	0.14	-0.3
COc1ccccc1NC(=O)c1sc2nc(C)cc(C)c2c1N	0.18	-2
CC(C)Oc1ccc(Nc2ncnc3ccccc23)cc1	1.5	-0.62
O=c1c2cc(NC(=S)NCCN3CCCCCC3)ccc2nc2n1CCCCC2	0.01	-1.2
COc1ccccc1NC(=O)c1cc2c(CO)cnc(C)c2oc1=Nc1ccccc1	0.24	1.1
CCOc1ccc(-c2nnc(SCC(=O)Nc3cc(C)on3)o2)cc1	2.6	0.2
CCOc1ccc(C(=S)N2CCOCC2)cc1OCC	0.73	1.6
Cc1ccc(-c2noc(CCCC(=O)N3CCOCC3)n2)cc1	0.14	-0.45
Cc1ccc(N2CCN(C(=O)c3ccccc3)CC2)c(C)c1	0.29	-0.28
O=c1c2c(n3cnnc3n1-c1ccccc1)-c1ccccc1CC21CCCCC1	0.17	1.6
COc1ccc(C(=O)NCc2nnc(SCC(=O)c3ccccc3)n2C)cc1	2	-0.27
COc1ccc(NC(=O)COC(=O)[C@@H]2CCCN2S(=O)(=O)c2ccccc2F)c(OC)c1	0.09	-0.12
O=c1c(-c2ccc3c(c2)OCCO3)coc2cc(O)cc(O)c12	1.9	-0.33
Cc1ccc(S(=O)(=O)N2CCC(=O)N(C(CO)C(C)C)CC2)cc1 (configuration not stated)	0.06	0.01
CC(C)(C)c1ccc(Oc2ccc(NC(=O)c3cccs3)cn2)cc1	1.2	-0.94
Cc1ccc2nc(SCc3cn4c(C)cc(C)nc4n3)[nH]c2c1	0.74	-0.68
CCC(=O)Nc1nc2nc(C)cc(=O)n2[nH]1	0.89	0.11
CCN(CC)C(=O)c1c(NC(=O)c2ccccc2)sc(C)c1C	0.1	0
CCOC(=O)C1CCCN(CC(=O)Nc2c(C(=O)OC)[nH]c3ccc(C)cc23)C1 (configuration not stated)	0.3	1.5
Cc1c(NS(=O)(=O)c2cccc([N+](=O)[O-])c2)c(=O)n(-c2ccccc2)n1C	0.73	-0.01
N=c1c2c(ncn1CCCO)Oc1cc(O)ccc1C2c1ccccc1 (configuration not stated)	0.46	1.8
CCc1nnc(NC(=O)c2cc(OC)c(OC)cc2[N+](=O)[O-])s1	0.67	-1.1
O=c1cc(-c2ccccc2)nc2nc[nH]n12	0.55	-1.6
CCC(C)Oc1ccccc1C1CC(=O)NC2=C1C(=O)CCC2 (configuration not stated)	0.22	-0.76
CC1=CC(C)C2(CO)COC(c3cccnc3)C1C2C (configuration not stated)	0.01	-0.36
CCN1CCCC1CNC(=O)Cn1cccc1C(=O)c1ccccc1 (configuration not stated)	0.32	-1.6
CC(O)c1nc2ccccc2n1CCCCOc1ccccc1 (configuration not stated)	0.24	0.02
Cc1ccc(-c2nc(CNC(=O)c3cc(C)on3)cs2)cc1	0.86	0.12
COC(=O)c1ccc(C(=O)N(C)C2CCCN(Cc3ccccc3F)C2)nc1 (configuration not stated)	1.7	-0.69
COc1ccc(C(=O)c2c(C(F)(F)F)oc3c2C(=O)c2ccccc2C3=O)cc1	0.63	-0.1
COc1cc(C2C3=C(CC(C)(C)CC3=O)Nc3c2c(=O)[nH]c(=O)n3Cc2ccccc2)ccc1O (configuration not stated)	0.04	0.75
COc1ccc(NS(=O)(=O)c2c(C(=O)N3CCCCCC3)c(C)n(C)c2C)cc1OC	0.21	0.2
O=C(CCCCCN1C(=O)c2ccccc2C1=O)NCc1ccco1	1.1	1.3
Cc1cc(Cl)cc2c1NC(=O)[C@]21[C@@H]2C(=O)N(Cc3ccccc3)C(=O)[C@@H]2[C@@H]2CCCN21	0.11	0.04
CCCCOc1ccc(N2C(=O)CC(N(CCc3ccccc3)C(=O)/C=C/C(=O)O)C2=O)cc1 (configuration not stated)	0.97	0
CCOc1ccc(CCNC(=O)/C=C/c2ccco2)cc1OCC	0.08	1.5
CC(=O)c1c(C)[nH]c(C(=O)OCc2nc3ccsc3c(=O)[nH]2)c1C	0.45	-0.1

3 entries out of the list, arranged by heavy-atom count, falling:
SMILES	KCNQ2 enhance	KCNQ2 enhance baseline
CCCCOc1ccc(N2C(=O)CC(N(CCc3ccccc3)C(=O)/C=C/C(=O)O)C2=O)cc1 (configuration not stated)	0.97	0
CCC(C)Oc1ccccc1C1CC(=O)NC2=C1C(=O)CCC2 (configuration not stated)	0.22	-0.76
Cc1ccc(-c2nc(CNC(=O)c3cc(C)on3)cs2)cc1	0.86	0.12

The listing picks up with the 6 entries that preceded the break.
SMILES	KCNQ2 enhance	KCNQ2 enhance baseline
COc1ccc(NS(=O)(=O)c2c(C(=O)N3CCCCCC3)c(C)n(C)c2C)cc1OC	0.21	0.2
O=C(CCCCCN1C(=O)c2ccccc2C1=O)NCc1ccco1	1.1	1.3
Cc1cc(Cl)cc2c1NC(=O)[C@]21[C@@H]2C(=O)N(Cc3ccccc3)C(=O)[C@@H]2[C@@H]2CCCN21	0.11	0.04
CCCCOc1ccc(N2C(=O)CC(N(CCc3ccccc3)C(=O)/C=C/C(=O)O)C2=O)cc1 (configuration not stated)	0.97	0
CCOc1ccc(CCNC(=O)/C=C/c2ccco2)cc1OCC	0.08	1.5
CC(=O)c1c(C)[nH]c(C(=O)OCc2nc3ccsc3c(=O)[nH]2)c1C	0.45	-0.1
Cc1cccc(Nc2nc(-c3ccncc3)cs2)c1	2.3	0.68
CCOc1ccc(C2C(C(=O)c3cccs3)=C(O)C(=O)N2Cc2cccnc2)cc1OC (configuration not stated)	0.17	0.87
OC(CCCN1CCC(O)(c2ccc(Cl)cc2)CC1)c1ccc(F)cc1 (configuration not stated)	0.03	-0.29
CSCCC(=O)N1CCC(n2nccc2NC(=O)c2ccc3c(c2)OCO3)CC1	0.69	0.17
S=C(NCC1CCCO1)N1CCN(c2cccc(Cl)c2)CC1 (configuration not stated)	0.9	-0.03
CSc1nsc(SCC(=O)Nc2ccc(C(N)=O)cc2)n1	0.57	0
O=c1[nH]c(=O)n(CCOc2ccc(Cl)cc2)cc1Br	0.02	-0.04
Fc1ccc(NC(=S)Nc2cccc3ccccc23)cc1	2.2	-0.18
COc1cccc(NC(=S)N(CCN(C)C)C(C)c2cccnc2)c1 (configuration not stated)	0.02	-0.32
CC(=O)N1CCCN(C(=O)c2ccc3nc(Cc4ccccc4F)oc3c2)CC1	0.88	-0.76
N#CCCn1cc(/C=N/NC(=O)c2ccncc2)c(-c2ccc(F)cc2)n1	1.4	1.2
O=C(N/N=C/c1ccc(-c2cccc(C(F)(F)F)c2)o1)c1ccccc1O	1	0.29
CN(Cc1cn[nH]c1-c1ccc2c(c1)OCO2)C1CCOCC1	0.3	-1
Cc1nn(-c2ccccc2)c(C)c1NC(=O)COC(=O)c1ccc(NC(=O)CC#N)cc1	0.47	1.3
COc1ccc(CNC(=O)CN(C(=O)c2csnn2)c2cccc3c2CCCC3)cc1	0.61	-0.84
COc1ccc(NC(=O)c2ccc(-c3ccccc3C(F)(F)F)o2)cc1	0.89	-0.68
Cc1ccc(SCC(=O)Nc2ccc(N3CCN(C)CC3)c(F)c2)cc1	1.9	-0.86
S=c1[nH]ccn1-c1ccc(Cl)cc1	0.21	-2.7
CCCSc1nnc(CSc2ncccn2)n1C	0.24	0.04
COc1ccc(Br)cc1CNC(=O)C1CCN(S(=O)(=O)N2CCC(C)CC2)CC1	1.3	-0.89
CCOC(=O)c1[nH]c2cc(OC)c(OC)cc2c1NC(=O)CN1CCN(c2ccc(OC)cc2)C(C)C1 (configuration not stated)	0.72	-2.1
CC(=O)NCCCOc1ccc([N+](=O)[O-])cc1Cl	0.29	0.21
CCOC(=O)c1sc2nc(SCC#N)n(CC3CCCO3)c(=O)c2c1C (configuration not stated)	0.19	0.7
O=C(NCCN1CCOCC1)c1cc(-c2cccs2)on1	0.43	1
COC(=O)c1cccc(NC(=O)Nc2ccccc2OC)c1	0.66	-0.8
CNC(=O)c1[nH]cnc1C(=O)NCC(=O)OC(C)(C)C	0.77	-0.87
Cc1ccc(NC(=O)c2sccc2C)nc1	0.07	0.72
O=S1(=O)CCOC[C@H](Cc2ccccc2)N1Cc1ccccc1	0.16	2.4
O=C(NCc1ccc(N2CCCC2=O)cc1)c1cccc(Cl)c1	0.1	1.4
CCC(C)NC(=O)Cn1ccc2cc(S(=O)(=O)N3CCCCCC3)ccc21 (configuration not stated)	0.08	-0.06
Cc1ccc(NC(=O)c2cc(=O)c3ccccc3o2)cc1S(=O)(=O)N1CCOCC1	1.1	0.2
COCC(C)n1c(C)cc(C(=O)COC(=O)c2ccc3c(c2)NC(=O)CS3)c1C (configuration not stated)	0.58	-0.37
Cc1cc(=O)oc2cc(OCC(=O)NCCCN3CCCC3=O)ccc12	2	0.85
Cc1cc(C)n2nc(C(=O)N3CCN(c4ccc([N+](=O)[O-])cc4)CC3)nc2n1	0.41	-0.71
Cn1c2c(c(=O)n(C)c1=O)C(CC(=O)Nc1ccccc1)C(=O)N2 (configuration not stated)	1.5	-3.4
COC(=O)C1=C(N)OC2=C(C(=O)CCC2)C1c1cccs1 (configuration not stated)	1.5	0.33
COc1cccc(C2N(c3ccc(Cl)cc3)C(=O)C3CCCN32)c1 (configuration not stated)	0.52	0.28
O=C(Cn1ccsc1=NC(=O)C(F)(F)F)c1ccccc1	1.8	-2.2
CC(C)N(CCNC(=O)c1nn(Cc2ccccc2)c(=O)c2ccccc12)C(C)C	0.17	1
CC(C)=CCN1CCN(CCCn2cccn2)CC1CCO (configuration not stated)	0.17	1.2
CCC(C)NCCOCCOc1ccc(Cl)c(C)c1C (configuration not stated)	0.02	1.5
COc1ccc(S(=O)(=O)NC(C)C)cc1-n1cnnn1	0.35	-1.1
COc1ccc(CCC(=O)N/N=C\c2cccs2)cc1	2.3	-0.77
CCc1cccc(NS(=O)(=O)c2ccc3c(c2)CCC(=O)N3)c1	2.9	-0.11
O=C(NC1CCCCC1)C(c1ccc(F)cc1)N(Cc1ccccc1)C(=O)CN1C(=O)c2ccccc2S1(=O)=O (configuration not stated)	0.9	0.66
CCOc1ccc(NC(=O)CSc2nc(N)c(-c3ccccc3)c(=O)[nH]2)cc1	0.5	3.6
Cc1onc(-c2ccccc2Cl)c1C(=O)N(C)C1CCCCC1	0.46	-1.6
COc1ccc(OC)c(CCNC(=O)c2ccccc2NC(=O)C2=C(C)OCCS2)c1	1.2	-0.11
CCOC(=O)C1CCN(C(=O)c2ccc3c(c2)NC(=O)/C(=C\c2cccc(C)c2)S3)CC1	0.15	-3.1
O=C(Cc1ccccc1)NNS(=O)(=O)c1ccc(F)cc1	0.67	0.69
CCSc1nnc(NC(=O)Cc2ccccc2OC)s1	0.6	2.2
Cc1c(NC(=S)NC(=O)c2ccccc2)c(=O)n(-c2ccccc2)n1C	0.43	-1.7
Cc1cccc(NC(=O)CCN2CCCCC2)c1	1.4	1.3
CC1CCCCC1NC(=O)CCC(=O)N1CCOc2ccc(Cl)cc21 (configuration not stated)	0.61	-0.03
COc1ccc(C(=O)c2c3ccc(OC)cc3[n+]([O-])n2CCCC(N)=O)cc1	1.4	0.49
O=C(CN(Cc1ccc(Cl)cc1)C(=O)CNS(=O)(=O)c1ccccc1)NCC1CCCO1 (configuration not stated)	0.71	-0.01
COc1ccc(C(=O)NCC(=O)NCC(=O)OCC(=O)c2ccc(C)cc2)cc1	0.01	1
